# rRNA inh HTS: inhibitors of bacterial rRNA selective over humanized ribosomes; GFP signal change (wild-type ribosome), % (no concentration beside the values); AID 720706; 1.6% of 350,000 active; E. coli WT GFP vs humanized-ribosome RFP mutants, fluorescence, 24 h; hits give low values; DMSO median 0, no signal -100;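 active = significant combined selectivity score with lowered wild-type GFP, culture density cut under 30%, mutant RFP and density less affected; inactive = any of these conditions unmet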; also: one replicate is shown; some compounds called inactive have numbers as strong as hits
# AF4-AF9 inh: blocks AF4 peptide binding to human AF9 | P42568 | AlphaScreen, biotin-AF4 peptide binding to FLAG-AF9 | inhibition, % at 10 µM | 0.47% of 350,000 active;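 active = every replicate reaching a set inhibition limit, whatever the replicate mean, cut at about 25% in these data; inconclusive = mean inhibition reaches that limit but some replicates miss it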;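 also: 0% = plate neutral control median and 100% = total signal loss; the record names both 10 and 1 µM as test concentration; the first replicate is given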
# Target sequence (P42568 whole entry, looked up): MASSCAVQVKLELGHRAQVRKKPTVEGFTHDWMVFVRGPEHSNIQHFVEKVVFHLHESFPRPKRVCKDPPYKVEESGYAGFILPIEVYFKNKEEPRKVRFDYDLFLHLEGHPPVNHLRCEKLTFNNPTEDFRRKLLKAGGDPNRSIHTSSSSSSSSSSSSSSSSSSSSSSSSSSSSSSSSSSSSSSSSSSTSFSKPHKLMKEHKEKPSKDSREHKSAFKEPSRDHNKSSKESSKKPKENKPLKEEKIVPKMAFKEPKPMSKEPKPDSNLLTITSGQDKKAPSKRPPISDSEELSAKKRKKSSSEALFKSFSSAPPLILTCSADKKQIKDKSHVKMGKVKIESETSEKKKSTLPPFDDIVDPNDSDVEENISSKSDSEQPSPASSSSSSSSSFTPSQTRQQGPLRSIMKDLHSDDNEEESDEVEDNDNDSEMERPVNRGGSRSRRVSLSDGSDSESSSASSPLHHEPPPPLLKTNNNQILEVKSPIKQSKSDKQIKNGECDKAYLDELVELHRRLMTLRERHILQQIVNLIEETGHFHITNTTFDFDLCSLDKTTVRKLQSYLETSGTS
# Bfl-1 A1 inh: inhibitors of the anti-apoptotic protein A1, read as caspase activation; 0.066% of 330,000 active; caspase activation, % (test concentration not listed); MEF A1-2A-BIM cells, Caspase-Glo 3/7 luminescence, 3 h; percent of clofoctol response, vehicle zero;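 active = over half of replicate activation scores above 10%, or exactly half above 10 with the replicate mean above 10; inconclusive = replicate mean below 10 yet half the replicates above 10; inactive = over half of replicates below 10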;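 also: wells of about 30 µL received 50 nL stock; many hits fall short of the cut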
# RanGTP-Impb inh: inhibitors of RanGTP-importin-beta interaction, primary screen, biochemical, FRET, CFP-Ran, YFP-importin-beta, homogeneous; cell-free CFP-Ran/YFP-importin-beta FRET ratio; inhibition, % (no concentration beside the values); 1.1% of 300,000 active;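 active = most replicates above 15%; inconclusive = exactly half above 15%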;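 also: 0% = DMSO wells and 100% = Ran loaded with GDP instead of GTP; wells of about 40 µL received 100 nL stock; the first replicate is given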
# T cruzi inh: blocks replication of Trypanosoma cruzi | T. cruzi beta-gal in NIH3T3, luminescence, 90 h | inhibition, % (test concentration not listed) | 1.4% of 300,000 active;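 active = mean inhibition across valid replicates above about 55%, limit read from the data; inconclusive = mean below that limit but half or more replicates reach it; inactive = mean below it, under half of replicates reach it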;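 also: signal also drops with host cell toxicity which is not excluded here; 0% = plate median of DMSO wells and 100% = zero luminescence signal; higher percent means less beta-gal luminescence so fewer parasites; stock transfer was 50 nL into about 50 µL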
# Calb FLC: affects C. albicans growth with fluconazole; growth inhibition, % (no concentration beside the values); 0.57% of 300,000 active; C. albicans CaCi-2 (fluconazole-resistant clinical isolate) + fluconazole, Alamar Blue growth, 48 h;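 active = most replicates above 75%; inconclusive = exactly half above 75%; inactive = most below 75%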;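 also: all wells also contain fluconazole at 8 µg/ml as a sub-toxic cotreatment; 0% = median of DMSO wells and 100% = median of geldanamycin control wells; wells of about 8 µL received 7.5 nL stock; the first replicate is given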
# Vif TR-FRET: inhibitors of Vif binding to APOBEC3G peptide, primary screen, biochemical, TR-FRET, GST-Vif 1-94, biotin-A3G peptide, dose response retest (AID 1117319) | inhibition, %; hits with a dose series show IC50 in µM | TR-FRET GST-Vif / biotin-A3G peptide binding; higher % means a stronger effect; test concentration not given here; strong numbers were not always called active | 0.57% of 260,000 active;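 active = above the screen mean plus three standard deviations and confirmed in dose response; inconclusive = results disagree or hit not tested in dose response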;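 also: Vif residues 1-94 fused to GST binding biotinylated APOBEC3G peptide 110-148; 0% = full assay without inhibitor and 100% = GST in place of GST-Vif; retest series ran down from 100 µM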
# Beta apoptosis: blocks beta cell apoptosis | 0.8% of 300,000 active | protection from apoptosis, % (concentration not given with the values) | INS-1E cytokine-induced death, ATP luminescence, 48 h; percent of positive-control rescue, neutral wells zero;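 active = all replicates at 75% or more, or half of them and the mean; inconclusive = half reach 75% but not the mean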;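 also: 0% = cytokine-treated negative control wells and 100% = positive control rescue; higher means more ATP so stronger rescue from cytokine killing; wells of about 40 µL received 100 nL stock; the first replicate is given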
# rRNA inh HTS OD600: further read-out of rRNA inh HTS, marked with its call; OD600 change, %; measured here: OD600 growth;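 optical density of the mix in the first replicate; 0 = DMSO median and -100 = no signal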
# rRNA inh HTS RFP: recorded beside rRNA inh HTS, whose call it bears; RFP signal change, %; measured here: RFP humanized mutant strains;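 first replicate; 0 = DMSO median and -100 = no signal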
# An asterisk follows results filed as active; ? = inconclusive; · = no result given. An excerpt; rates above refer to the full screens.
SMILES,rRNA inh HTS,rRNA inh HTS OD600,rRNA inh HTS RFP,AF4-AF9 inh,Bfl-1 A1 inh,RanGTP-Impb inh,T cruzi inh,Calb FLC,Vif TR-FRET,Beta apoptosis
Cc1nn(CC(=O)NCCCc2ccccc2)c(C)c1[N+](=O)[O-],7,4,0.4,-1.2,1.0,0.5,-6,87*,-7%,1
COc1cc(CNCc2ccccn2)ccc1OCC(=O)NC1CCCCC1,·,·,·,·,0.3,-2.6,-2,1,14%,-5
CC#CC[N+](C)(CC#CC)CC(=O)c1ccccc1,-2,1,-3.9,-1.9,-0.3,2.9,-13,-33,15%,-1
COc1ccc(N2CCN(C(c3cc(OC)ccc3OC)c3nnnn3CC3CCCO3)CC2)cc1 (stereo unspecified),·,·,·,·,0.3,-0.8,-2,2,?,3
Cn1cnc2c(=O)sc3ccccc3c21,-8,-5,1.7,-7.0,-0.6,-2.5,-8,3,·,-4
Cc1ccc(C(=O)NNCC(=O)Nc2ccc(Cl)cc2F)cc1,4,-7,-1.8,2.3,-0.3,·,·,·,·,0
Cc1c(-n2c(SCC(=O)O)nnc2-c2ccccc2Br)c(=O)n(-c2ccccc2)n1C,25,16,-4.1,11,1.6,7.2,-31,-7,·,-10
CCOC(=O)c1c(C)[nH]c(C(=O)Nc2cc(OCC)c(N3CCOCC3)cc2OCC)c1C,4,17,-1.0,0.9,-0.8,·,·,·,8%,29
CCOc1ccc(C(C)(C)C)cc1S(=O)(=O)Nc1ccncc1,12,15,0.1,-2.7,-0.4,1.6,14,9,·,-3
CCc1cc(-c2n[nH]c(=S)n2CC(C)C)cs1,-11,-16,0.5,2.1,2.5,?,-11,-8,-2%,-6
N#C/C(=C/c1ccccc1OCc1ccc(F)cc1)c1ccc(C(=O)O)cc1,-48,-70,-15,1.6,-1.1,-2.7,-5,13,·,-7
Cc1ccc(NCC(=O)N/N=C/c2cccc(Br)c2)cc1,-23*,-1.3*,2.3*,0.1,1.2,2.0,-4,-8,-1%,·
Cc1cc(N(C)C)nc(SC(C)C)n1,·,·,·,·,-0.2,-4.0,10,-13,1%,-3
CCOC(=O)c1c(NC(C)=O)sc2c(OC)cccc12,·,·,·,·,0.6,-1.7,27,9,28%,-7
Cc1cc(C)cc(CN2CCC(Oc3ccc(C(=O)N4CCCC4)cc3)CC2)c1,-4,4,1.3,6.8,·,2.0,41,-13,·,·
CCOc1cc(C)c(C(C)C)cc1S(=O)(=O)N1CC(C)OC(C)C1 (stereo unspecified),·,·,·,·,-1.0,-0.3,11,-5,-4%,-3
Cc1cccc(/C=N/NC(=O)c2ccc(NC(=O)c3ccc(Cl)cc3)cc2)n1,-1,1,-0.3,1.3,0.8,-2.3,6,-14,6%,-1
CCc1ccc(OC2=NS(=O)(=O)c3ccccc32)cc1,18,14,-1.5,1.1,·,-2.5,-4,3,8%,·
CCOc1ccc(-c2cn[nH]c2N)cc1,8,4,2.1,-0.5,-0.7,-2.2,9,3,-2%,-4
COc1ccc(NC(=O)CN2CCN(S(=O)(=O)N3CCCCCC3)CC2)cc1,0,-2,-0.3,1.3,0.5,-4.2,3,-3,·,-1
COc1ccc(C)cc1-n1nnnc1SCc1cc(=O)n2cc(C)ccc2n1,-14,-14,-3.2,·,0.6,-2.2,-13,-4,1%,40
COc1c2ccoc2c(OC[C@@H](O)C(C)(C)OC)c2oc(=O)ccc12,6,17,8.6,-7.4,0.9,8.3,5,-3,20%,-5
COc1cccc(C(=O)C2CCCN(Cc3ccc(OC)c(Cn4cncn4)c3)C2)c1 (stereo unspecified),10,4,-1.9,6.8,-0.1,3.5,58*,-7,29%,-3
CCc1nc(SCC(=O)c2cccs2)c2oc3ccccc3c2n1,·,·,·,·,0.6,6.4,14,11,-130%,22
Cc1cc2ccccn2c1C(=O)c1ccc(NN)c([N+](=O)[O-])c1,-22,15,-11,-4.1,0.1,-0.4,28,-4,7%,-5

# Further results:
SMILES,rRNA inh HTS,rRNA inh HTS OD600,rRNA inh HTS RFP,AF4-AF9 inh,Bfl-1 A1 inh,RanGTP-Impb inh,T cruzi inh,Calb FLC,Vif TR-FRET,Beta apoptosis
Cn1ccc(C(=O)Nc2cccnc2Cl)n1,0,1,-0.7,-3.4,·,-1.3,-6,1,-6%,·
Cc1noc(C)c1S(=O)(=O)N(Cc1ccccc1)C(C)C,-19*,-15*,3.4*,·,0.3,?,29,-3,-5%,2
COCCNc1nnc(Cc2ccccc2)c(=O)[nH]1,12,7,-1.4,-2.0,1.7,-4.4,-17,2,0%,-5
O=C(CSc1nc2ccccc2o1)NCC1CCCO1 (stereo unspecified),4,7,1.1,-6.6,-0.3,·,-4,1,1%,-7
COc1ccc(CCNC(=O)CN(C2CCCCC2)S(C)(=O)=O)cc1OC,·,·,·,·,-0.7,-0.4,-7,-7,-1%,-1
Cc1ccc2ccc(C3C(=O)c4ccccc4C3=O)nc2c1,11,14,0.0,-41,-4.1,?,-9,-10,·,22
Cc1ccc(CNC(=O)C2CSC3(C)CCC(=O)N23)cc1 (stereo unspecified),11,5,1.7,-47,-0.3,·,·,·,-3%,-5
CN(C)S(=O)(=O)c1ccc(C(=O)NCC[N+]2(C)CCCCCC2)o1,8,8,1.7,-0.4,0.5,-4.4,1,6,-6%,-1
CC(C)C1NC(=S)N(C2CCCCC2)C1=O (stereo unspecified),0,-2,-0.7,0.3,-0.3,-0.6,-7,-29,0%,-4
CCN1CCN(C(=S)c2ccc(OCC(=O)N3CCOCC3)cc2)CC1,·,·,·,·,-0.1,-0.8,2,2,2%,-7
COc1ccc(-c2nc(-c3ccccn3)no2)cc1,-8,-4,-3.7,0.3,-8.1,·,12,·,·,89*
O=C(CSc1nc2ccccc2c(=O)[nH]1)N1CCOCC1,·,·,·,·,0.6,-1.5,-3,17,-3%,2
CC(C)(C)NC(=O)NC(=O)COc1ccccc1C#N,·,·,·,·,-3.8,-4.4,3,16,71%,4
O=C(OCc1ccc(C(=O)c2ccccc2)cc1)c1cccc(-c2nnc(-c3ccccc3)o2)c1,8,14,-11,1.6,-1.1,-1.1,1,-1,-13%,3
COC(=O)c1ccccc1NC(=O)CSc1nc2c(c(=O)[nH]1)CCC2,9,10,0.0,-0.2,-0.4,-0.2,-15,2,·,-2
O=C(O)c1ccc(C(=O)Nc2cccc(NC(=O)C3CCCO3)c2)cc1 (stereo unspecified),·,·,·,·,0.7,-3.6,-5,0,5%,0
O=C(O)CCCC(=O)N1CCOCCOCCOCCOCC1,8,5,-0.2,-1.2,0.9,-1.7,1,6,-6%,-7
Cc1ccc(CN2CCN(/N=C/c3ccc(C(=O)O)cc3)CC2)cc1,·,·,·,·,0.2,-0.8,12,3,·,2
CCOc1ccccc1C1C(C(N)=O)=C(C)Nc2nc(-c3ccc(OC)cc3)nn21 (stereo unspecified),·,·,·,·,-0.1,-1.5,-3,0,9%,·
CCOC(=O)c1cc(-c2csc(-c3ccc(C(C)(C)C)cc3)n2)on1,-4,6,-3.3,3.7,0.9,-0.1,·,4,2%,·
COc1ccc(-c2cn(-c3ccc(C)cc3C)c(=O)[nH]2)cc1OC,-1,-4,-1.7,1.3,0.8,0.8,-10,0,·,4
COc1ccc(OC)c(S(=O)(=O)N2CCCC(C(=O)NCc3ccccn3)C2)c1 (stereo unspecified),10,5,2.5,1.2,-0.1,-3.8,1,14,·,1
CCC(c1nc2ccccc2c(=O)n1-c1nc2ccccc2s1)N1C(=O)c2ccccc2C1=O (stereo unspecified),·,·,·,·,-0.6,-1.3,8,4,18%,-4
O=C(COc1ccc2ccccc2c1)NC1=NCCS1,·,·,·,·,-2.4,4.5,5,4,-10%,1
Cc1ccc(/C=C/C(=O)c2nc3ccccc3[nH]2)cc1,·,·,·,·,-0.6,8.0,-1,-4,7%,-2

# (more compounds)
SMILES,rRNA inh HTS,rRNA inh HTS OD600,rRNA inh HTS RFP,AF4-AF9 inh,Bfl-1 A1 inh,RanGTP-Impb inh,T cruzi inh,Calb FLC,Vif TR-FRET,Beta apoptosis
N#CC1=C2SCN(Cc3ccco3)CN2C(=O)CC1c1ccc(Cl)cc1 (stereo unspecified),·,·,·,·,0.0,-4.0,-1,3,11%,-5
CCN(CC(=O)Nc1cc(S(=O)(=O)N2CCCCC2)ccc1C)Cc1ccccc1,-22,-24,-0.7,3.5,-0.5,·,19,-2,0%,-13
S=C1COC(c2ccccc2)N1c1ccccc1 (stereo unspecified),·,·,·,·,1.3,4.4,0,-13,-9%,·
Cc1ccc(OCCCC(=O)Nc2nnc(C3CCCO3)s2)c(C)c1 (stereo unspecified),-1,15,3.2,-1.3,1.5,1.4,-1,2,·,-6
Cc1cccc(NC(=O)CC(=O)Nc2cccc(C)c2)c1,4,13,-1.3,-0.6,-0.5,0.7,12,-26,-2%,1
CCn1c(SCC(=O)Nc2nnc(C)s2)nnc1-c1ccncc1,8,2,0.6,·,-0.6,?,5,13,0%,1
Cc1ccc(S(=O)(=O)N2CCN(S(C)(=O)=O)C2)cc1,8,3,-2.7,-30,0.7,-2.6,-12,?,2%,-5
CCc1cccc(NC(=O)Nc2ccc3c(c2)OCO3)c1,·,·,·,·,-1.0,-2.7,17,3,?,1
CN1CCN(C(=O)c2ccc(COc3cc(Cl)ccc3Cl)o2)CC1,1,-5,-1.1,5.4,-0.2,0.1,22,15,·,4
O=C(COc1ncnc2ccccc12)NCCc1ccc(F)cc1,-8,-14,-3.7,-2.1,0.3,4.5,11,-2,21%,-4
COc1ccc(-c2ccnc(SCC(=O)c3ccc(OC)c(OC)c3)n2)cc1,·,·,·,·,-0.3,?,21,-4,·,1
COCCNS(=O)(=O)c1cc(F)ccc1OC,·,·,·,·,-0.1,-1.0,1,5,31%,-4

# Entries of single compounds from above. Order of screens: rRNA inh HTS	rRNA inh HTS OD600	rRNA inh HTS RFP	AF4-AF9 inh	Bfl-1 A1 inh	RanGTP-Impb inh	T cruzi inh	Calb FLC	Vif TR-FRET	Beta apoptosis
# `Cc1ccc2ccc(C3C(=O)c4ccccc4C3=O)nc2c1` as listed: 11	14	0.0	-41	-4.1	?	-9	-10	·	22
# `CCOC(=O)c1c(NC(C)=O)sc2c(OC)cccc12` as listed: ·	·	·	·	0.6	-1.7	27	9	28%	-7
# `CN(C)S(=O)(=O)c1ccc(C(=O)NCC[N+]2(C)CCCCCC2)o1` as listed: 8	8	1.7	-0.4	0.5	-4.4	1	6	-6%	-1
# `N#C/C(=C/c1ccccc1OCc1ccc(F)cc1)c1ccc(C(=O)O)cc1` as listed: -48	-70	-15	1.6	-1.1	-2.7	-5	13	·	-7
# `COCCNS(=O)(=O)c1cc(F)ccc1OC` as listed: ·	·	·	·	-0.1	-1.0	1	5	31%	-4
